Assay outcomes: PubChem BioAssay, several laboratories
Beta cell apopt: beta cell apoptosis inhibition; actives 0.8% (n = 300,000); protection from apoptosis, % (no concentration beside the values); AID 435005; INS-1E cytokine-induced death, ATP luminescence, 48 h; percent of positive-control rescue, neutral wells zero;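 active means all replicates at 75% or more, or half of them and the mean; inconclusive means half reach 75% but not the mean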;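 further: 0% = cytokine-treated negative control wells and 100% = positive control rescue; higher means more ATP so stronger rescue from cytokine killing; wells of about 40 µL received 100 nL stock; the first replicate is given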
MLL AF4-AF9 inh: MLL-AF4/AF9 protein interaction inhibition; AlphaScreen, biotin-AF4 peptide binding to FLAG-AF9; AID 651704; P42568; inhibition, % at 10 µM; actives 0.47% (n = 350,000);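 active means every replicate reaching a set inhibition limit, whatever the replicate mean, cut at about 25% in these data; inconclusive means mean inhibition reaches that limit but some replicates miss it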;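 further: 0% = plate neutral control median and 100% = total signal loss; the record names both 10 and 1 µM as test concentration; the first replicate is given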
Target sequence (P42568 whole entry, looked up): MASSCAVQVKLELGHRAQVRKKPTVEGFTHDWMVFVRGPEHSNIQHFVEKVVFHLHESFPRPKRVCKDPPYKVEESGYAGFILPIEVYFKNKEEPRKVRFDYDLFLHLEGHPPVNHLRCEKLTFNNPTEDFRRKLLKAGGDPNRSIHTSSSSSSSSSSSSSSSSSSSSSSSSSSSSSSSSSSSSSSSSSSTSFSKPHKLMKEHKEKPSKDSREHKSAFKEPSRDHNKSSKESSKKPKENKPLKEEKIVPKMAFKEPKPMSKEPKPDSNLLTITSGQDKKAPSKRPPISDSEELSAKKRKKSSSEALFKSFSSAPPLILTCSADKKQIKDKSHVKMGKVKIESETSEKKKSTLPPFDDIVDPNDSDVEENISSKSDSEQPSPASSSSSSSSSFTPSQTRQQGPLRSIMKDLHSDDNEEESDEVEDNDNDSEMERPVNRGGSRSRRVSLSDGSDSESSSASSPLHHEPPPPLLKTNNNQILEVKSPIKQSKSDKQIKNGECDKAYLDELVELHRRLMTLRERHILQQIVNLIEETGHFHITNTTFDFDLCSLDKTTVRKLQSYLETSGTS
FGF22 binding: binders of recombinant human FGF22 by thermal shift; Q9HCT0; SYPRO orange fluorescence; percent of sucrose octasulfate shift, DMSO zero; calls only at 9.99 µM; actives 1.5% (n = 340,000);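 active means melting point raised past a set limit in the mean and every replicate; inconclusive means no clear call; three in four hits are not shown here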
Target sequence (Q9HCT0 whole entry, looked up): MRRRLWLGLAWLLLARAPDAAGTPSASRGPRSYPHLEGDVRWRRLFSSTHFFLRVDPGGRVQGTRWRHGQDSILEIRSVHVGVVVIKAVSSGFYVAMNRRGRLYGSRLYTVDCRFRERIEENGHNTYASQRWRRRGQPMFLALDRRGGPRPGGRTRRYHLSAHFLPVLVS
T cruzi repl: blocks replication of Trypanosoma cruzi. T. cruzi beta-gal in NIH3T3, luminescence, 90 h. inhibition, % (test concentration not listed). actives 1.4% (n = 300,000);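 active means mean inhibition across valid replicates above about 55%, limit read from the data; inconclusive means mean below that limit but half or more replicates reach it; inactive means mean below it, under half of replicates reach it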;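 further: signal also drops with host cell toxicity which is not excluded here; 0% = plate median of DMSO wells and 100% = zero luminescence signal; higher percent means less beta-gal luminescence so fewer parasites; stock transfer was 50 nL into about 50 µL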
Bfl-1 A1 inh: inhibitors of the anti-apoptotic protein A1, read as caspase activation; MEF A1-2A-BIM cells, Caspase-Glo 3/7 luminescence, 3 h; percent of clofoctol response, vehicle zero; caspase activation, % (no concentration beside the values); actives 0.066% (n = 330,000);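 active means over half of replicate activation scores above 10%, or exactly half above 10 with the replicate mean above 10; inconclusive means replicate mean below 10 yet half the replicates above 10; inactive means over half of replicates below 10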;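 further: wells of about 30 µL received 50 nL stock; many hits fall short of the cut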
E coli growth: blocks Escherichia coli growth. OD600, 23 h; active compounds read low. OD600 absorbance (concentration not given with the values). actives 0.21% (n = 330,000);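 active means OD600 absorbance below the run mean of sample wells minus 3.6 SD, in any replicate, cut at about 0.56 in these data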;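 further: stock transfer was 300 nL into about 60 µL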
UCH37 inh: blocks the human deubiquitinase UCH37; Q9Y5K5; purified proteasome/UCH37, Ub-AMC cleavage fluorescence; actives 0.33% (n = 330,000); inhibition, % (test concentration not listed);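 active means mean of two replicates above 20%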;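 further: 0% = compound-free wells with enzyme and 100% = wells lacking proteasome; stock transfer was 100 nL into about 20 µL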
Target sequence (Q9Y5K5 whole entry, looked up): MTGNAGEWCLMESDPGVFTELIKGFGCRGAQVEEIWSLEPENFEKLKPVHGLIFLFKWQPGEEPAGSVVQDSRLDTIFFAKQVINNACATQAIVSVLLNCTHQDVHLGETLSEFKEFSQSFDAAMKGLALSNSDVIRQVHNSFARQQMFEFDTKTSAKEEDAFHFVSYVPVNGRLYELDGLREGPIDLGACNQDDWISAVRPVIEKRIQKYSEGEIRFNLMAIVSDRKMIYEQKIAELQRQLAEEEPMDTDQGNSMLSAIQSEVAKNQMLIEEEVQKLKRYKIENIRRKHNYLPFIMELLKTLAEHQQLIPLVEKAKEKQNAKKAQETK
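System: Proteasome-associated human UCH37 deubiquitinase; Input: 0.15 nM proteasome in added enzyme buffer; Also added: Ub-AMC substrate from 1 µM stock; Incubation: 30 min compound-proteasome preincubation then 25 min substrate reaction, room temperature; Detection: fluorescence, ex 355 nm, em 460 nm; Read-out: % inhibition of Ub-AMC cleavage fluorescence; Benchmarks: no-proteasome and no-compound wells.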
rRNA inh HTS: inhibits bacterial ribosomal RNA function over humanized ribosomes. E. coli WT GFP vs humanized-ribosome RFP mutants, fluorescence, 24 h; active compounds read low; DMSO median 0, no signal -100. GFP signal change (wild-type ribosome), % (test concentration not listed). actives 1.6% (n = 350,000). AID 720706;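 active means significant combined selectivity score with lowered wild-type GFP, culture density cut under 30%, mutant RFP and density less affected; inactive means any of these conditions unmet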; further: one replicate is shown; some compounds called inactive have numbers as strong as hits
rRNA inh HTS OD600: also measured in rRNA inh HTS; calls as there; OD600 change, %; measured here: OD600 growth;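 optical density of the mix in the first replicate; 0 = DMSO median and -100 = no signal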
rRNA inh HTS RFP: further read-out of rRNA inh HTS, marked with its call; RFP signal change, %; measured here: RFP humanized mutant strains;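 first replicate; 0 = DMSO median and -100 = no signal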
Active calls of the source: *; i = inactive; ? = inconclusive; / = not tested or not shown; & = joins results of further samples.

entry	SMILES	Beta cell apopt	MLL AF4-AF9 inh	FGF22 binding	T cruzi repl	Bfl-1 A1 inh
1	Cn1c(NCCN2CCCCC2)cc(=O)n(C)c1=O	-2.9	/	/	4.0	-0.2
2	CC(=O)Oc1ccc(N(C(C)=O)S(=O)(=O)c2ccc(C)c([N+](=O)[O-])c2)cc1	-1.7	/	/	-14.3	0.3
3	CCOn1c(=O)c(-c2cccc(Br)c2)[n+]([O-])c2ccccc21	-8.4	-0.8	i	-14.4	-0.4
4	Cc1ccc(S(=O)(=O)/N=C2/NC(=O)/C(=C/c3cc([N+](=O)[O-])ccc3O)S2)cc1	-0.1	0.6	/	16.5	0.3
5	O=C(NNC(=O)c1cc(-c2ccccc2)n(-c2ccccc2)n1)c1cccc([N+](=O)[O-])c1	/	/	/	9.1	-0.2
6	Cc1ccc(N(CC(O)CN2CCCCC2)S(=O)(=O)c2ccc(C)cc2)cc1 (stereo not given)	2.1	2.9	i	12.3	-0.5
7	CC1=NN(C(=O)c2ccco2)C(O)(c2ccccc2)C1 (stereo not given)	-4.8	-3.9	i	-18.9	-0.4
8	COCC(=O)Nc1nc(-c2ccccc2)c(C)s1	-7.8	/	/	-9.5	-0.2
9	CC1CCCCC1NC(=O)CSc1nnnn1-c1ccccc1 (stereo not given)	-0.5	/	/	5.7	-0.9
10	CC(C)n1c(C(O)c2ccccc2)nc2ccccc21 (stereo not given)	/	/	/	2.0	-0.1
11	CCOC(=O)C1CCN(Cc2ccc(Cl)c(Cl)c2)CC1	-0.9	/	/	-2.8	0.8
12	CC(=O)NS(=O)(=O)c1ccc(NC(=O)/C=C/c2cn(-c3ccccc3)nc2-c2ccccc2)cc1	-0.6	-7.4	i	-15.2	-0.3

entry	E coli growth	UCH37 inh	rRNA inh HTS	rRNA inh HTS OD600	rRNA inh HTS RFP
1	0.766	1.6	/	/	/
2	0.727	3.0	/	/	/
3	/	/	8.6	8.1	2.5
4	/	/	-6.8	5.6	4.5
5	0.708	5.0	/	/	/
6	0.667	0.3	-1.8	0.3	0.2
7	0.693	6.9	10.5	15.7	-2.5
8	0.65	6.3	/	/	/
9	0.719	5.4	/	/	/
10	0.696	4.9	/	/	/
11	0.678	2.6	/	/	/
12	0.686	-0.1	-6.5	5.1	1.9

Going on with the list.
entry	SMILES	Beta cell apopt	MLL AF4-AF9 inh	FGF22 binding	T cruzi repl	Bfl-1 A1 inh
13	O=C(Cn1c(=O)[nH]c2ccsc2c1=O)NC1CCCCCC1	-4.0	/	/	-8.0	0.1
14	CCNC(=S)NNC(=O)c1ccccn1	15.6	/	/	-10.4	-0.7
15	CC(C)NC(=O)N(C)C[C@H]1Oc2ccc(NS(=O)(=O)c3ccc(Cl)cc3)cc2CC(=O)N([C@@H](C)CO)C[C@@H]1C	8.6	-3.4&3.2	i	/	2.3
16	CCOC(=O)c1c(C)[nH]c(C)c1C(=O)COC(=O)/C=C/c1ccco1	-5.9	2.9	i	/	-0.2
17	c1ccc2c(c1)CSc1ccccc1N2	/	9.7	i	26.3	-0.9
18	COc1ccc(C(CC(=O)N2CCCCC2)c2c(O)cc(OC)cc2OC)cc1 (stereo not given)	-10.1	2.1	i	-10.3	1.0
19	CC(c1ccccn1)N(C)C(=O)c1ccc2nc(Cc3cccc(Cl)c3)oc2c1 (stereo not given)	-11.7	0.2	i	13.4	-1.4
20	COc1cc(C2CC(=O)N3CN(Cc4ccco4)CSC3=C2C#N)ccc1OCc1ccccc1 (stereo not given)	7.8	-1.2	i	-7.2	-0.6
21	Cc1ccc(CSCc2ccc(C(=O)NCCCN3CCOCC3)o2)cc1	-3.8	-1.2	i	28.3	-0.4
22	CS(=O)(=O)N(CC(=O)N1CCCC1)c1ccc(Cl)cc1Cl	-0.9	-1.4	i	6.6	-0.1
23	COc1ccc(CCC(=O)NCC(=O)OCc2ccccc2)cc1	-30.2	-2.3	i	-6.5	-1.1
24	O=c1[nH]c(C(F)(F)F)nc2ccccc12	-3.4	/	/	-4.3	-0.7

entry	E coli growth	UCH37 inh	rRNA inh HTS	rRNA inh HTS OD600	rRNA inh HTS RFP
13	0.714	4.2	/	/	/
14	0.577	3.2	/	/	/
15	/	4.3	1.6&6.4	0.0&15.9	1.4&-0.3
16	0.693	3.6	/	/	/
17	0.579	1.7	-23.8*	2.2*	-3.5*
18	0.676	3.2	-6.0	-11.9	-1.3
19	0.709	3.1	-21.2	-29.8	-5.8
20	0.774	4.1	7.2	-3.4	3.2
21	0.723	7.1	7.1	-0.1	-1.2
22	0.705	1.2	-1.5	-20.6	-2.0
23	0.648	-0.2	6.7	11.1	0.2
24	0.782	0.0	/	/	/

Random excerpt: four entries already listed, in no set order.
entry	SMILES	Beta cell apopt	MLL AF4-AF9 inh	FGF22 binding	T cruzi repl	Bfl-1 A1 inh
6	Cc1ccc(N(CC(O)CN2CCCCC2)S(=O)(=O)c2ccc(C)cc2)cc1 (stereo not given)	2.1	2.9	i	12.3	-0.5
13	O=C(Cn1c(=O)[nH]c2ccsc2c1=O)NC1CCCCCC1	-4.0	/	/	-8.0	0.1
22	CS(=O)(=O)N(CC(=O)N1CCCC1)c1ccc(Cl)cc1Cl	-0.9	-1.4	i	6.6	-0.1
12	CC(=O)NS(=O)(=O)c1ccc(NC(=O)/C=C/c2cn(-c3ccccc3)nc2-c2ccccc2)cc1	-0.6	-7.4	i	-15.2	-0.3

entry	E coli growth	UCH37 inh	rRNA inh HTS	rRNA inh HTS OD600	rRNA inh HTS RFP
6	0.667	0.3	-1.8	0.3	0.2
13	0.714	4.2	/	/	/
22	0.705	1.2	-1.5	-20.6	-2.0
12	0.686	-0.1	-6.5	5.1	1.9

Next part:
entry	SMILES	Beta cell apopt	MLL AF4-AF9 inh	FGF22 binding	T cruzi repl	Bfl-1 A1 inh
25	CCOC(=O)c1c(-c2ccc(C)cc2)cn2ccccc12	-1.3	/	/	-1.9	-0.5
26	O=C(NCc1ccc2c(c1)OCO2)C1CC(c2ccccc2O)=NO1 (stereo not given)	/	-0.8	i	7.7	-0.2
27	COc1ccc(-c2ccc(-c3noc(-c4cccs4)n3)c(OC)n2)cc1	3.6	/	/	10.2	1.7
28	O=C(CSc1nnc(Cc2ccccc2)o1)N1CCOCC1	-0.4	1.1	i	-6.8	0.5
29	COc1ccc(CC(=O)OCC(=O)c2c(N)n(C)c(=O)n(C)c2=O)cc1OC	0.3	?	i	/	0.0
30	COc1ccc(-c2oc(=O)c3cc(OC)c(OC)cc3c2/C=C/c2cccc([N+](=O)[O-])c2)cc1	11.5	-5.2	i	/	?
31	C=CCN(c1ccccc1C(=O)O)S(=O)(=O)c1ccc(NC(=O)OC)cc1	-7.8	-4.2	i	7.9	0.2
32	CCOc1ccc(/C(O)=C2/C(=O)C(=O)N(CCOCCO)C2c2ccccn2)cc1 (stereo not given)	-4.1	/	/	-9.8	0.1
33	CCCOCn1cc(F)c(=O)[nH]c1=O	4.7	/	/	-10.5	-0.5
34	O=S(=O)(NCc1csc(-c2cccnc2)n1)c1ccc2c(c1)OCCO2	-5.3	/	/	-11.6	-0.2
35	COc1ccc(N2CC(C)Cn3c2nc2c3c(=O)n(CCN3CCOCC3)c(=O)n2C)cc1 (stereo not given)	-2.3	/	/	-12.6	-0.2
36	Cn1c(=O)c2c(SCC(=O)N3CCCCC3)nc(-c3ccccc3F)nc2n(C)c1=O	/	1.1	i	16.8	0.0

entry	E coli growth	UCH37 inh	rRNA inh HTS	rRNA inh HTS OD600	rRNA inh HTS RFP
25	0.791	-145.1	/	/	/
26	0.657	4.0	-8.5	-16.8	-1.3
27	0.722	-64.9	/	/	/
28	0.671	0.0	8.9	14.4	-2.5
29	0.622	-3.0	3.4	9.0	0.4
30	/	1.9	11.6	9.5	-5.7
31	0.719	0.9	2.8	-0.1	-5.2
32	0.729	12.6	/	/	/
33	0.687	0.2	/	/	/
34	0.745	-0.6	/	/	/
35	0.789	-2.5	/	/	/
36	0.67	0.9	14.4	11.9	-1.9

New compounds follow
entry	SMILES	Beta cell apopt	MLL AF4-AF9 inh	FGF22 binding	T cruzi repl	Bfl-1 A1 inh
37	Cc1ccccc1C(=O)NC(CC(C)C)C(=O)NCC(C)(C)N1CCOCC1 (stereo not given)	-0.2	-7.3	i	/	0.0
38	O=C(CCc1c[nH]c2ccccc12)NCCc1ccc2c(c1)OCCO2	-6.0	3.0	i	7.2	-0.2
39	O=C(CNC(=O)c1ccc(Cl)cc1Cl)NCC1CCCO1 (stereo not given)	-0.5	-10.5	i	-7.9	-0.1
40	COc1ccc(C2CC(=O)C=C(NCc3ccc4c(c3)OCO4)C2)cc1 (stereo not given)	3.4	13.4	i	2.9	0.3
41	Cc1ccc(S(=O)(=O)NCCC(=O)NC2CCCCCC2)cc1C	1.3	-0.2	i	/	0.5
42	Cc1cnc(C(=O)OCC(=O)NC2CCCCCC2)cn1	-1.0	-0.8	/	-15.7	-0.8
43	FC(F)(F)c1nnc2ccc(NCc3cccnc3)nn12	-5.0	-0.1	i	-9.8	0.4
44	O=C(Nc1cc(-c2ccccc2)sc1C(=O)O)c1cccc(F)c1	-0.2	-1.9	/	-2.2	0.1
45	COc1ccc(C(C#N)N2CCCCCC2)cc1OC (stereo not given)	-2.7	/	/	5.1	-0.3
46	Cc1noc(C)c1CSc1nc2ccccc2[nH]1	-0.4	/	/	-17.6	-0.4
47	COc1ccc(NC(=O)CCCSc2nc(-c3ccco3)cc(C(F)(F)F)n2)cc1OC	6.5	/	/	13.6	-0.1
48	Cc1cc(=O)n(CNC(=O)c2ccccc2)c(=S)[nH]1	-24.0	/	/	-8.5	-0.3

entry	E coli growth	UCH37 inh	rRNA inh HTS	rRNA inh HTS OD600	rRNA inh HTS RFP
37	0.682	-0.2	/	/	/
38	0.664	0.6	-27.8	-39.5	-9.2
39	0.709	2.3	5.8	6.6	0.9
40	0.638	0.5	-23.9*	-0.6*	-1.2*
41	0.676	4.9	/	/	/
42	0.726	1.9	10.6	5.6	-1.8
43	0.721	2.9	10.9	11.4	1.8
44	/	/	-53.5	-77.1	-23.1
45	0.728	0.4	-7.7	-2.1	-4.5
46	0.732	3.2	/	/	/
47	0.751	5.7	/	/	/
48	0.6	-0.1	/	/	/

Following part
entry	SMILES	Beta cell apopt	MLL AF4-AF9 inh	FGF22 binding	T cruzi repl	Bfl-1 A1 inh
49	COc1ccc(Cn2c(O)cc(=O)[nH]c2=O)cc1	1.2	/	/	-1.7	0.6
50	CCOC(=O)c1sc(NC(=O)c2ccc3nc[nH]c3c2)nc1C	0.3	1.8	i	-3.6	-7.2
51	Cc1ccc(OCC(=O)NCc2n[nH]c(=O)c3ccccc23)cc1	1.6	-0.2	i	5.3	-0.8
52	CCn1c(Cn2nnc(-c3ccccc3)n2)nnc1SCC(=O)Nc1ccccc1	0.3	-21.9	/	1.9	0.2

entry	E coli growth	UCH37 inh	rRNA inh HTS	rRNA inh HTS OD600	rRNA inh HTS RFP
49	0.679	4.7	5.9	7.5	0.1
50	0.694	-0.6	-3.4	-0.9	2.6
51	0.655	2.4	15.7	10.4	9.1
52	0.666	0.1	5.7	6.5	-1.4

Some of the compounds tested, so the mix of outcomes need not match the whole.
